Source: PubChem BioAssay
HNF4A DNA FP: change in binding of human HNF4 alpha to DNA. HNF4a-FITC DNA binding, fluorescence polarization, 1 h. activity change, % at 10 µM. 360,000 compounds, 0.3% hits. AID 1224865; in the data active means activity change above about 30%, passing the limit was not always enough;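 further: controls were the assay level and a saturating level of protein; the project sought stronger binding though the title names inhibitors; some compounds called inactive have numbers as strong as hits; positive values seem to mean higher polarization but the record does not say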
Vif A3G: inhibitors of Vif binding to APOBEC3G peptide, primary screen, biochemical, TR-FRET, GST-Vif 1-94, biotin-A3G peptide, dose response retest (AID 1117319). TR-FRET GST-Vif / biotin-A3G peptide binding; higher % means a stronger effect; test concentration not given here; strong numbers were not always called active. one-dose inhibition, %; IC50 in µM for titrated hits. 260,000 compounds, 0.57% hits;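 active means above the screen mean plus three standard deviations and confirmed in dose response; inconclusive means results disagree or hit not tested in dose response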;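 further: Vif residues 1-94 fused to GST binding biotinylated APOBEC3G peptide 110-148; 0% = full assay without inhibitor and 100% = GST in place of GST-Vif; retest series ran down from 100 µM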
LANA-H2B inh: blocks KSHV LANA binding to histone H2A/H2B | cell-free LANA-H2A/H2B peptide, fluorescence polarization | inhibition, % (concentration not given with the values) | 320,000 compounds, 0.6% hits; in the data active means inhibition mostly above about 10%, no sharp cut-off; inactive means mostly below about 6.7%;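 further: stock transfer was 7.5 nL into about 10 µL; 0% = median of vehicle wells and 100% = median of positive control wells; one replicate is shown; the record names a cut of 25% in any replicate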
E coli growth: inhibitors of Escherichia coli growth; OD600, 23 h; stronger effect = lower value; OD600 absorbance (no concentration beside the values); 330,000 compounds, 0.21% hits;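 active means OD600 absorbance below the run mean of sample wells minus 3.6 SD, in any replicate, cut at about 0.56 in these data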;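 further: stock transfer was 300 nL into about 60 µL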
UCH37 DUB inh: inhibitors of human deubiquitinating enzyme UCH37 | inhibition, % (no concentration beside the values) | 330,000 compounds, 0.33% hits | purified proteasome/UCH37, Ub-AMC cleavage fluorescence;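 active means mean of two replicates above 20%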;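 further: 0% = compound-free wells with enzyme and 100% = wells lacking proteasome; stock transfer was 100 nL into about 20 µL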
Target sequence (Q9Y5K5 whole entry, looked up): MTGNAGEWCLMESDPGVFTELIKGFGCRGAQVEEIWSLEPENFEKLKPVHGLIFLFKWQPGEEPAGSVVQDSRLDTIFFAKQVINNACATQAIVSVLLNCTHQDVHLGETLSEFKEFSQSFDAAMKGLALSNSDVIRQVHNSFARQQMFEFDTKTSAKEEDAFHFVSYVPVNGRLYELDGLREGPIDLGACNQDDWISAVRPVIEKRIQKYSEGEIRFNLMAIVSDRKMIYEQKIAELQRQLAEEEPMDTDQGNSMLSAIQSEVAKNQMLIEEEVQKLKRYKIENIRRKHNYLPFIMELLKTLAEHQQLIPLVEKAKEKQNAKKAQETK
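Material: human UCH37 enzyme supplied as purified proteasome complex / Amount: 0.15 nM proteasome as dispensed / Buffer or medium: pH 7.4 Tris-HCl (50 mM) with ovalbumin, ATP-MgCl2, DTT / Times: preincubation 30 min, reaction 25 min, room temperature / Technique: AMC fluorescence from Ub-AMC cleavage, excitation 355 nm, emission 460 nm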
A1 inh: inhibitors of the anti-apoptotic protein A1, read as caspase activation. MEF A1-2A-BIM cells, Caspase-Glo 3/7 luminescence, 3 h; percent of clofoctol response, vehicle zero. caspase activation, % (concentration not given with the values). 330,000 compounds, 0.066% hits;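 active means over half of replicate activation scores above 10%, or exactly half above 10 with the replicate mean above 10; inconclusive means replicate mean below 10 yet half the replicates above 10; inactive means over half of replicates below 10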;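 further: wells of about 30 µL received 50 nL stock; many hits fall short of the cut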
Beta2AR agonist: human beta-2 adrenergic receptor agonism by FAP; Am2.2-beta2AR cells, FAP receptor internalization, flow cytometry; reference of the scale not given here; response, % (test concentration not listed); 340,000 compounds, 0.43% hits;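 active means response above a set limit, near 3 SD of response in nonfluorescent compounds, cut at about 42% in these data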;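 further: stock transfer was 100 nL into about 11 µL; a reference agonist was the positive control; negative values mostly stem from fluorescent compounds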
Target sequence (P07550 whole entry, looked up): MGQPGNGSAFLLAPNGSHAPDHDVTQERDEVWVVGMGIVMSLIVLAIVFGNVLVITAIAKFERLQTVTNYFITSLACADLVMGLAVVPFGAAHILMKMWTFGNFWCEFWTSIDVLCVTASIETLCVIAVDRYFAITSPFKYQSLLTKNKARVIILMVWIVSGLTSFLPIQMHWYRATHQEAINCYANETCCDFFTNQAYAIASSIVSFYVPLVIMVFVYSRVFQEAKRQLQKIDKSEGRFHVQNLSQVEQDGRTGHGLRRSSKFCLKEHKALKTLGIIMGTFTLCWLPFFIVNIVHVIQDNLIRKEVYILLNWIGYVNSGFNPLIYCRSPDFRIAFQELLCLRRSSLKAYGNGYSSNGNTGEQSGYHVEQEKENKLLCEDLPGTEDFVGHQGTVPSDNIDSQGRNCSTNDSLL
An asterisk follows results filed as active; ? = inconclusive; . = no result given.

SMILES | HNF4A DNA FP | Vif A3G | LANA-H2B inh | E coli growth | UCH37 DUB inh | A1 inh | Beta2AR agonist
O=C(NCc1cccc(Cl)c1)c1ccncc1 | 0.2 | -6% | -4.5 | 0.73 | 5.2 | 0.3 | -2
O=C(O)CCC(=O)N1CCN(S(=O)(=O)c2cccs2)CC1 | 4.0 | . | 2.6 | 0.71 | -0.7 | 1.3 | -2
Cc1nc(-c2ccc(-n3nncc3-c3ccco3)cc2)cs1 | 2.3 | . | 4.1 | 0.68 | -1.1 | 0.1 | -17
O=[N+]([O-])c1ccc(S(=O)(=O)Nc2ccc(-c3ccc(N4CCOCC4)nn3)cc2)cc1 | -3.4 | 1% | . | 0.7 | 6.8 | -0.2 | 12
C/C(N)=C(/C#N)C(=O)CSc1nc2ccccc2[nH]1 | -8.3 | 20% | -5.1 | 0.64 | 0.9 | -2.7 | -13
Cc1cc(/C=C2\C(=N)N3N=C(CC(=O)N4CCOCC4)SC3=NC2=O)c(C)n1-c1ccccc1 | 4.6 | . | 0.8 | 0.72 | -9.5 | -0.3 | 4
COc1ccc(C2NC(=O)NC(C)=C2C(=O)OC2CCC(C)CC2)cc1 (stereo not drawn) | -1.5 | . | 1.5 | 0.7 | 4.0 | 2.2 | 2
O=C(Cn1cccc1C(=O)c1ccccc1)NCc1cccnc1 | -0.3 | -3% | 1.9 | 0.73 | -2.4 | -0.1 | 1
CCn1cc(C(=O)NCCCN2CCCC2)c(=O)c2cc(S(=O)(=O)N3CCc4ccccc4C3)ccc21 | 1.8 | 16% | -5.1 | 0.65 | 5.6 | -1.0 | 1
CCOC(=O)C1CCN(S(=O)(=O)c2c(Cl)ccc3nonc23)CC1 | -1.8 | 32% | 3.5 | . | . | 0.5 | 79*
CC(C)[C@H](N)C(=O)NC[C@H]1CC[C@H](C(=O)N[C@@H](Cc2ccccc2)C(=O)O)CC1 | 3.5 | 2% | -0.4 | . | . | 0.3 | -2
COc1ccccc1NC(=O)CC(NCc1ccccc1)C(=O)O (stereo not drawn) | -0.8 | 16% | -0.3 | . | 4.5 | 0.5 | -4
CCC(C)NC(=S)NNC(=O)c1ccncc1 (stereo not drawn) | 3.3 | 8% | 0.6 | 0.66 | 2.2 | 0.6 | -1
O=C1CC(c2ccccc2Cl)c2c(sc3c(=O)[nH]c(CCl)nc23)N1 (stereo not drawn) | . | 7% | 0.8 | . | . | 1.2 | .
C/C(=N\N(Cc1ccccc1)c1ccccc1)c1ccncc1 | -5.5 | -4% | -8.2 | . | . | -0.1 | 5
COc1ccc(OC)c(NC(=O)CN2CCc3ccccc3C2)c1 | 0.0 | 14% | -0.5 | 0.69 | 5.2 | -0.1 | 0
CCOc1ccc(-c2cccc(NC(=O)COc3ccc(Cl)cc3)c2)nn1 | 1.2 | -1% | -3.5 | 0.61 | 1.1 | -2.5 | -10
Cc1cc(-n2c(SCc3ccccc3F)nc3n[nH]c(C)c3c2=N)ccc1Cl | -1.3 | 5% | -1.3 | 0.69 | -4.6 | -0.6 | 1
COc1ccccc1N(C(=O)CNC(=O)c1ccco1)C(C(=O)NC1CCCCC1)c1ccncc1 (stereo not drawn) | 2.3 | . | 5.8 | 0.67 | 4.2 | 0.2 | -9
Cc1ccc(OCc2nnc(N)s2)cc1C | 4.1 | -9% | 3.7 | 0.66 | 7.2 | -4.7 | -1
COc1ccc(C(=O)N2CCN(C(=O)c3ccco3)CC2)cc1OC | -0.7 | 8% | -1.6 | 0.66 | 5.9 | 0.5 | -3
O=C(Nc1ccccc1)Nc1cccc(C(F)(F)F)c1 | -4.5 | . | -0.6 | 0.62 | 3.4 | -0.7 | 7
CCC(C)(C)NC(=O)C(c1ccc(OC)cc1)N(C(=O)CCC(=O)Nc1cc(C)on1)c1cccc(OC)c1 (stereo not drawn) | 1.1 | . | 1.6 | 0.65 | 0.1 | 1.1 | 16
OCC1(CCOc2ccccc2)CCN(Cc2cccn2-c2ncccn2)CC1 | 0.8 | ? | -0.9 | 0.75 | 2.9 | -0.8 | 6
CCOc1ccc(OCCC(=O)OCC(=O)NCCc2ccc(S(N)(=O)=O)cc2)cc1 | -1.2 | 29% | -2.7 | 0.71 | 2.6 | -1.0 | 1

(list continues)
SMILES | HNF4A DNA FP | Vif A3G | LANA-H2B inh | E coli growth | UCH37 DUB inh | A1 inh | Beta2AR agonist
CN(C)c1ccc(N2C(=O)CC(Nc3ccc(N4CCOCC4)cc3)C2=O)cc1 (stereo not drawn) | 0.9 | 1.2µM* | -6.5 | 0.75 | 0.3 | 0.3 | 2
Cc1cc(NS(=O)(=O)c2ccc(NS(=O)(=O)c3ccc(Br)cc3)cc2)no1 | 0.1 | . | -2.2 | 0.7 | -0.5 | 1.0 | 1
CCCCOc1ccc(C(=O)Nn2c(-c3cccs3)nc3ccccc3c2=O)cc1 | -3.5 | 16% | -1.0 | 0.74 | -421 | 0.2 | 3
COc1ccc(CN2CCNC(=O)C2CC(=O)NCCSc2nccn2C)cc1OC (stereo not drawn) | 1.4 | ? | -0.7 | 0.72 | 0.0 | 0.1 | 0
Cc1cc(=O)oc2cc(OCc3cc4c(cc3Cl)OCO4)ccc12 | -0.1 | 0% | 2.1 | 0.82 | -19 | -0.1 | -10
CCOC(=O)C1=CN(Cc2cccc(-c3cccnc3)c2)S(=O)(=O)N(C)C1C (stereo not drawn) | -3.6 | -7% | . | 0.74 | 4.2 | . | 0
CC(C)C[C@H](NC(=O)c1[nH]cnc1C(=O)Nc1ccc(Cl)cc1)C(=O)OC(C)(C)C | 0.7 | -1% | -0.4 | . | 1.7 | -2.0 | 15
CN(C(=O)COC(=O)CCCc1c[nH]c2ccccc12)c1c(N)n(Cc2ccccc2)c(=O)[nH]c1=O | -1.0 | -4% | -1.0 | 0.71 | -0.1 | -0.2 | -1
Cc1ccccc1OCC(=O)Nc1cccc(N(C)S(C)(=O)=O)c1 | -4.2 | -2% | -0.4 | 0.65 | 6.3 | -0.5 | -1
CC(=O)c1ccc(N2C(=O)[C@@H]3C(CCC(N)=O)NC4(C(=O)Nc5c4ccc(Cl)c5C)[C@@H]3C2=O)cc1 (stereo partly drawn) | 3.2 | ? | -15 | 0.72 | -0.1 | -1.6 | -3
Cc1[nH]nc2c1C(c1ccco1)C(C#N)=C(N)O2 (stereo not drawn) | 0.4 | -1% | -0.4 | 0.65 | 2.8 | 0.2 | 13
COc1cccc(-c2noc(C(C)n3nc(C)c([N+](=O)[O-])c3C)n2)c1 (stereo not drawn) | 0.3 | 2% | -3.3 | 0.71 | 0.6 | 0.5 | -7
CCCc1nnc(NC(=O)Nc2ccc(OC)cc2)s1 | -1.1 | ? | -0.8 | 0.68 | 2.8 | 0.1 | 4
CCN1CCN(c2cc(C(C)C)nc3c(-c4ccccc4)c(C)nn23)CC1 | 1.6 | . | 2.4 | 0.7 | -20 | -0.2 | -3
COc1ccc(/C=C2/N=C(c3cccs3)OC2=O)cc1OC(C)C | -2.4 | 2% | 8.6 | . | . | 0.2 | 2
O=C(Nc1ccc(Br)c2ccccc12)c1ccc2ccccc2c1O | 1.5 | . | -1.4 | . | . | 0.8 | 17
O=C(CN(C(=O)c1ccccc1Cl)C1CCCCC1)Nc1ccc(Cl)c([N+](=O)[O-])c1 | 1.2 | 3% | -1.3 | 0.74 | 2.6 | -0.3 | 1
Cc1ccc2nc3c(c(Nc4ccccc4)c2c1)CCC3 | 3.7 | 3% | -10 | 0.62 | -16 | 0.5 | 5
Cc1ccc(-c2ccc(CCC(=O)O)n2-c2cccc(C(=O)O)c2)cc1 | 2.7 | 1% | 1.1 | 0.66 | -1.1 | 0.9 | -1
N=c1oc2ccc(Br)cc2cc1C(=O)NCc1ccc(F)cc1 | -0.8 | . | 0.5 | 0.72 | 6.9 | 0.5 | 3
CCSc1nc(C2CC2)cc(-c2cccs2)c1C#N | 1.7 | 25% | 1.9 | 0.67 | 0.5 | 0.2 | 15
Cc1nn2c(NCCCn3ccnc3)cc(C(C)C)nc2c1-c1ccccc1 | 2.0 | . | -3.0 | 0.63 | -20 | -0.5 | -1
Cn1ccnc1SCC(=O)c1cc2ccccc2o1 | 15 | ? | 1.5 | 0.69 | 1.9 | 0.0 | -6
CCOc1cc(S(=O)(=O)NC2CC(C)(C)NC(C)(C)C2)ccc1F | 3.2 | 6% | 1.6 | 0.63 | 2.1 | 1.5 | -14
Cc1nc2sc(C(c3ccco3)N3CCN(c4ccccc4F)CC3)c(O)n2n1 (stereo not drawn) | 1.0 | 6% | 8.0 | 0.67 | 5.9 | 0.2 | 4

(list continues)
SMILES | HNF4A DNA FP | Vif A3G | LANA-H2B inh | E coli growth | UCH37 DUB inh | A1 inh | Beta2AR agonist
CCOCCCNCC(=O)NC1(C)C2CCC(C2)C1(C)C (stereo not drawn) | -3.0 | 0% | 6.2 | 0.69 | 0.7 | 1.7 | -4
Cc1ccc(NC(=O)COC(=O)C(NS(=O)(=O)c2ccc(Cl)cc2)C(C)O)c(Br)c1 (stereo not drawn) | -4.6 | 6% | -0.1 | 0.67 | 1.0 | 1.1 | 3
O=C(Cc1cccs1)N(c1ccc(Br)cc1)C1C=CS(=O)(=O)C1 (stereo not drawn) | 3.9 | 5% | -1.2 | 0.68 | -0.3 | 1.2 | -4
Cc1ccc(S(=O)(=O)N2CN(CC3CCCO3)c3nc4ccccc4nc32)cc1 (stereo not drawn) | 5.5 | -4% | -2.2 | 0.66 | -25 | 0.0 | 11
COC(=O)[C@]1(C)N[C@H](CN(C)C(=O)Nc2ccc(C)cc2)[C@@H]2C(=O)N(Cc3ccccc3)C(=O)[C@@H]21 | -0.6 | 0% | -1.4 | 0.66 | 0.9 | -0.3 | 6
COc1cc(C(=O)Nc2ccc(C(C)=O)cc2)c(Br)c(OC)c1OC | -0.5 | -3% | -2.0 | 0.73 | 5.4 | 0.5 | 3
COc1ccc(OC)c(/C=C/C(=O)OCC(=O)Nc2ccc(Cl)c(S(=O)(=O)N(C)C)c2)c1 | 0.6 | -1% | 0.9 | 0.72 | -218 | 0.3 | -2
O=C(Nc1ccn(Cc2ccccc2F)n1)c1ccc(COc2cccc(Br)c2)cc1 | 0.0 | -3% | -1.5 | 0.76 | 3.4 | -7.9 | -3
CN(C)S(=O)(=O)c1cc(NC(=O)COC(=O)CCc2ccccc2)ccc1Cl | -4.0 | 5% | -0.9 | 0.67 | 7.0 | 0.1 | 2
Cc1cc(C)c(OCC(=O)NCC(c2ccco2)N2CCCCC2)c(C)c1 (stereo not drawn) | 2.0 | -9% | -0.6 | 0.65 | 2.8 | -0.5 | 5

In the list so far, six contain fluorine:
SMILES | HNF4A DNA FP | Vif A3G | LANA-H2B inh | E coli growth | UCH37 DUB inh | A1 inh | Beta2AR agonist
Cc1cc(-n2c(SCc3ccccc3F)nc3n[nH]c(C)c3c2=N)ccc1Cl | -1.3 | 5% | -1.3 | 0.69 | -4.6 | -0.6 | 1
O=C(Nc1ccccc1)Nc1cccc(C(F)(F)F)c1 | -4.5 | . | -0.6 | 0.62 | 3.4 | -0.7 | 7
N=c1oc2ccc(Br)cc2cc1C(=O)NCc1ccc(F)cc1 | -0.8 | . | 0.5 | 0.72 | 6.9 | 0.5 | 3
CCOc1cc(S(=O)(=O)NC2CC(C)(C)NC(C)(C)C2)ccc1F | 3.2 | 6% | 1.6 | 0.63 | 2.1 | 1.5 | -14
Cc1nc2sc(C(c3ccco3)N3CCN(c4ccccc4F)CC3)c(O)n2n1 (stereo not drawn) | 1.0 | 6% | 8.0 | 0.67 | 5.9 | 0.2 | 4
O=C(Nc1ccn(Cc2ccccc2F)n1)c1ccc(COc2cccc(Br)c2)cc1 | 0.0 | -3% | -1.5 | 0.76 | 3.4 | -7.9 | -3
